PKD1 inh: inhibitors of human PKD1 kinase, biochemical, fluorescence polarization; Serine/threonine-protein kinase D1 (Homo sapiens), Q15139; PKD1 kinase fluorescence polarization assay; inhibition, %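 (about 10 µM by stock and volumes)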; 200,000 compounds, 0.056% hits;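 active means inhibition of 50% or more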;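 further: controls were vehicle for no effect and a reference inhibitor for full effect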
Target sequence (Q15139 whole entry, looked up): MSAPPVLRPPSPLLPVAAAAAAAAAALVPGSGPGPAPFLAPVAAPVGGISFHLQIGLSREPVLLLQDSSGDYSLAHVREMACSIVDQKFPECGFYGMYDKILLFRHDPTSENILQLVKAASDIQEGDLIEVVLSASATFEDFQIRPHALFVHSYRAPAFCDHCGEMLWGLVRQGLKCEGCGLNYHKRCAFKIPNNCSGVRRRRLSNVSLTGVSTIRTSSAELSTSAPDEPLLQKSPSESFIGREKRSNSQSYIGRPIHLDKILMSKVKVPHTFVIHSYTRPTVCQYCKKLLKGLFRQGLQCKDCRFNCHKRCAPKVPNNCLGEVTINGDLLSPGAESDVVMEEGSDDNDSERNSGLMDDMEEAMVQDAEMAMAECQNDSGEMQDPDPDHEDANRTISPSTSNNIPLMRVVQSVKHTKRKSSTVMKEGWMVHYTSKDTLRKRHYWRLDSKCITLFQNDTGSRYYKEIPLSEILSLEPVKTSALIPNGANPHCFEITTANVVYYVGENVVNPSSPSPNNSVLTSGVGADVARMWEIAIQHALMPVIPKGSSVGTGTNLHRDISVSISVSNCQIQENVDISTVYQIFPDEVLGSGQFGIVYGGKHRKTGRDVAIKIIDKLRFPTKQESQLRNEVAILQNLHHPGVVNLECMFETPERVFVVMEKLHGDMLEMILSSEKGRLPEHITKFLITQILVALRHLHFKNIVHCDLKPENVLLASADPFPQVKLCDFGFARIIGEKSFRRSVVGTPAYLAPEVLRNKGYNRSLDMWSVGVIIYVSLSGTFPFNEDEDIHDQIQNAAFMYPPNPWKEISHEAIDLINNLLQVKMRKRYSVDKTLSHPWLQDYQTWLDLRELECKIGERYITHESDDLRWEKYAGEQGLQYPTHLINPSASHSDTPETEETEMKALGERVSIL
GALR2 ag: GALR2 receptor agonists, primary screen, cell-based; activation, %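 (tested at 5 µM)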; 140,000 compounds, 0.48% hits; GALR2-expressing cells, agonist activation read-out; Galanin receptor type 2 (Homo sapiens), O43603;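 active means above mean plus 3 SD of all compounds, about 5% in these data, not always enough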;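 further: 0% = vehicle buffer wells and 100% = reference agonist at full effect; tested in CHO reporter cells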
INS promoter inh: inhibitors of insulin promoter-driven GFP, primary screen, imaging, TRM-6 cells (human fetal islet line), eGFP reporter, cell count; reporter expression induced with tamoxifen; inhibition, % at 2 µM; 130,000 compounds, 0.9% hits; AID 1273, 2008;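 active means inhibition above the mean plus 3 SD, with well images judged a real hit on visual review, cut at about 60% in these data, passing the limit was not always enough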
RGS16-Gao: modulators of RGS16 binding to Galphao, primary screen, biochemical, human proteins, multiplexed bead flow cytometry; Regulator of G-protein signaling 16 (Homo sapiens) + Guanine nucleotide-binding protein …; bead-based flow cytometry RGS16-Galphao binding, fluorescence; actives lie on both sides; binding response (% of control), % at 10 µM; 220,000 compounds, 0.38% hits; AID 1441, 2008;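 active means below 25% or above 175%, edge rows of some plates excepted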;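 further: Galphao activated by GDP with aluminum fluoride before binding; 100% = wells without compound and 0% = beads without RGS; some results beyond the cut were filed as inactive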
HSV replic up: enhancers of HSV replication in host cells, fold increase, host cell viability; HSV replication augmentation in cells; maximum fold increase; 220,000 compounds, 0.005% hits; AID 1956, 2009;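 active means peak rise of 1.5-fold or more in the series; tested in PC3 cells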;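 further: first round at 10 µM; read as green reporter fluorescence; hits show the peak of a series up to 25 µM; 1 = signal of infected wells without compound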
INS promoter inh cell count: second read-out of INS promoter inh, no call of its own (marks repeat the call); normalized cell count, %; measured here: cell count, toxicity; reference of the scale not given here;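 cells exposed to compound for 48 h; stained nuclei by imaging scaled within each plate; lower means fewer cells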
HSV replic up primary fold: recorded beside HSV replic up, whose call it bears; fold increase; compound at 10 µM; measured here: primary screen fold increase 10 uM; tested in PC3 cells;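 GFP signal in the first replicate; 1 = infected wells without compound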
Active calls of the source: *; i = inactive; x = no result given.

A first look, 2 compounds:
compound	PKD1 inh	HSV replic up	INS promoter inh cell count	GALR2 ag	INS promoter inh	HSV replic up primary fold	RGS16-Gao
COc1cc(C(C(=O)NC2CCCCC2)N(C(=O)Cc2c[nH]c3ccccc23)c2ccc(C)cc2)cc(OC)c1OC (centres undefined)	-9	i	68	-1.8	14	0.99	66
O=C(NCCCn1ccnc1)c1cc(-c2ccc(Br)cc2)on1	2	i	x	x	x	0.88	101

The whole of this part, repeating the preview:
compound	PKD1 inh	HSV replic up	INS promoter inh cell count	GALR2 ag	INS promoter inh	HSV replic up primary fold	RGS16-Gao
COc1cc(C(C(=O)NC2CCCCC2)N(C(=O)Cc2c[nH]c3ccccc23)c2ccc(C)cc2)cc(OC)c1OC (centres undefined)	-9	i	68	-1.8	14	0.99	66
O=C(NCCCn1ccnc1)c1cc(-c2ccc(Br)cc2)on1	2	i	x	x	x	0.88	101
O=C(/C=C/c1cc([N+](=O)[O-])ccc1OC(F)F)Nc1cccc(OC(F)F)c1	-3	i	x	-1.5	x	0.92	104
O=C(O)CCc1ccc(-c2ccccc2)n1CC1CCCO1 (centres undefined)	0	i	114	-2.2	62	0.95	101
O=C(c1ccc(Cl)cc1)c1nnc(-c2ccncc2)o1	6	i	53	-0.4	19	0.89	106
CC(C)n1c(O)c(/C=C2\C=Nc3ccccc32)sc1=Nc1ccccc1	-6	i	x	-1.9	x	0.85	103
Cc1ccc(C)c(-c2[nH]ncc2CN2CCCC(CO)(Cc3ccccc3C)C2)c1 (centres undefined)	0	i	x	x	x	0.99	100
C=CCn1c(SCC(=O)O)nnc1-c1ccccc1	-5	i	115	-1.6	44	0.86	43
CC(C)N(Cc1ccccc1)C(=O)/C=C/c1ccccc1[N+](=O)[O-]	-2	i	114	x	-14	1.2	94
Clc1ccc(-n2cc(-c3ccc(Br)cc3)[n+]3c2CCCCC3)cc1	x	i	x	x	x	0.96	105
COc1ccc(C2c3c(oc4ccccc4c3=O)C(=O)N2Cc2ccncc2)cc1 (centres undefined)	-9	i	107	-0.8	-10	1	103
Cc1csc(SCc2nc3sc4c(c3c(=O)[nH]2)CCC4)n1	-12	i	125	-1.5	3	0.99	102
O=C(N/N=C/c1cn(Cc2ccccc2)c2ccccc12)c1ccncc1	0	i	120	x	-21	1.1	100
CCN(CC)S(=O)(=O)c1ccc(OC)nc1	2	i	149	-2.1	-12	1	105
COc1coc(/C=C/C(=O)O)cc1=O	-8	i	111	-0.4	-17	0.86	105

Arranged by heavy-atom count (falling): part of the list above.
compound	PKD1 inh	HSV replic up	INS promoter inh cell count	GALR2 ag	INS promoter inh	HSV replic up primary fold	RGS16-Gao
COc1ccc(C2c3c(oc4ccccc4c3=O)C(=O)N2Cc2ccncc2)cc1 (centres undefined)	-9	i	107	-0.8	-10	1	103
CC(C)n1c(O)c(/C=C2\C=Nc3ccccc32)sc1=Nc1ccccc1	-6	i	x	-1.9	x	0.85	103
C=CCn1c(SCC(=O)O)nnc1-c1ccccc1	-5	i	115	-1.6	44	0.86	43

Going on with the list:
compound	PKD1 inh	HSV replic up	INS promoter inh cell count	GALR2 ag	INS promoter inh	HSV replic up primary fold	RGS16-Gao
CC1(C)Cc2c(C#N)c(N3CCCC3)nc(-c3ccco3)c2CO1	-14	i	x	11	x	1.1	100
CCc1nnc(NC(=O)CSc2n[nH]c(-c3ccccc3O)n2)s1	-6	i	x	x	x	0.94	114
CCN(c1ccccc1)S(=O)(=O)c1ccc(C(=O)Nc2nnc(CSC)o2)cc1	2	i	125	x	-77	0.93	97
O=C(Nc1c(F)c(F)c(F)c(F)c1F)NC1CCCCC1	-4	i	77	-2.2	-22	0.94	101
O=C(NCc1ccco1)/C(=C\c1ccco1)NC(=O)c1cccs1	1	i	x	x	x	1.1	105
COc1ccc(/C=N/n2c(=S)n(C)c3ccccc32)cc1OC	-1	i	133	-1.6	0	0.9	102
Cc1cccc2nc(CSc3nnnn3-c3ccccc3)cn12	-5	i	115	-0.7	-9	1	101
O=C(NCCN1CCOCC1)N1CCOCC1	-6	i	x	-0.9	x	0.98	94
CCc1ccc(C(=O)COC(=O)c2cccc(N3C(=O)c4c(C)nc5ccccc5c4C3=O)c2)cc1	0	i	144	-3.2	14	0.9	112
c1nc(N2CCCCC2)c2[nH]cnc2n1	9	i	x	-1.2	x	1	94
O=C(c1ccc2ncsc2c1)N1CCN(c2ccc(O)cc2)CC1	-4	i	86	-2.5	-3	0.74	99
COc1ccc(OC)c(C2NC(=O)NC(C)=C2C(=O)Nc2ccc(C)cc2C)c1 (centres undefined)	-6	i	x	-2.5	x	1.1	101
CNC(=O)C(=O)NCCc1ccc(Cl)cc1	-9	i	96	-2.0	-22	1	101
CCNC(=O)CC1C(=O)N(c2ccccc2)C(=O)N1CCc1ccc(OC)c(OC)c1 (centres undefined)	1	i	102	-1.4	-286	0.94	101
CC(C)C(NC(=O)C12CC3CC(CC(C3)C1)C2)C(=O)N/N=C/C1=C(N2CCOCC2)C(=C\c2ccc([N+](=O)[O-])cc2)/CC1 (centres undefined)	-6	i	111	-0.5	-176	1	94

At a glance, two of the compounds above.
compound	PKD1 inh	HSV replic up	INS promoter inh cell count	GALR2 ag	INS promoter inh	HSV replic up primary fold	RGS16-Gao
CCNC(=O)CC1C(=O)N(c2ccccc2)C(=O)N1CCc1ccc(OC)c(OC)c1 (centres undefined)	1	i	102	-1.4	-286	0.94	101
CC(C)C(NC(=O)C12CC3CC(CC(C3)C1)C2)C(=O)N/N=C/C1=C(N2CCOCC2)C(=C\c2ccc([N+](=O)[O-])cc2)/CC1 (centres undefined)	-6	i	111	-0.5	-176	1	94

Other results
compound	PKD1 inh	HSV replic up	INS promoter inh cell count	GALR2 ag	INS promoter inh	HSV replic up primary fold	RGS16-Gao
CC(C)CC(NC(=O)OC(C)(C)C)c1cn([C@@H](CCC(=O)OC(C)(C)C)C(=O)N2CCN(C(=O)OC(C)(C)C)CC2)nn1 (some centres undefined)	-5	i	x	x	x	1.1	98
Cc1c(Cl)ccc2c1NC(=O)C21NC(CCC(N)=O)[C@H]2C(=O)N(c3ccc(Cl)cc3)C(=O)[C@H]21 (some centres undefined)	-10	i	x	-2.7	x	0.95	96
CS(=O)(=O)N1CCN(c2ccc(NC(=O)c3ccc([N+](=O)[O-])o3)cc2)CC1	0	i	x	x	x	0.61	96
Cc1ccc(S(=O)(=O)NN2C(=O)c3ccccc3NC2c2ccco2)cc1 (centres undefined)	-1	i	110	x	42	0.94	104
COc1ccc(NC(=S)N(CCCN2CCC(C)CC2)Cc2cccs2)cc1	6	i	x	x	x	0.77	101
Cc1nonc1C1CCCN1Cc1cn[nH]c1-c1ccc2c(c1)OCO2 (centres undefined)	-9	i	x	x	x	1.1	95
O=C(NC(=S)N1CCCc2ccccc21)c1ccco1	5	i	x	x	x	1	99
Cc1oc(-c2cccc3ccccc23)nc1CN1CCN(c2ncnc3ccccc23)CC1	1	i	x	x	x	0.84	104
Cc1ccc(CNC(=O)c2cc3c(s2)CN(Cc2ccccc2)C3)cc1	4	i	90	x	5	0.97	101
O=C(Nc1nccs1)c1ccc(S(=O)(=O)N2CCCCC2)cc1	0	i	x	0.1	x	0.63	107
O=C(c1cn(-c2ccccc2)nc1-c1ccncc1)N1CCCCC1	0	i	70	1.2	10	1	110
O=C(COC(=O)c1ccc2c(=O)n3c(nc2c1)CCC3)NC1CCS(=O)(=O)C1 (centres undefined)	-6	i	x	x	x	0.98	101
O=C(c1ccccc1)c1c[nH]cc1-c1ccccc1	4	i	194	-1.4	-344	0.81	107
COc1ccc(C(=O)Nc2nc(C)c(C(=O)N(C)C)s2)cc1OC	7	i	110	0.0	-22	0.78	99
O=C(CSc1nnc2ccc(-c3ccccc3)nn12)NCC1CCCO1 (centres undefined)	-3	i	x	x	x	0.95	97
COC(=O)c1cc(C(=O)CC(C)C)c[nH]1	2	i	109	x	8	1	102
COc1ccc(OCCSc2nnc3sc4ccccc4n23)cc1	4	i	x	-0.9	x	0.84	100
CCOC(=O)Cc1[nH]nc2c1C(C1C=CCCC1)C(C#N)=C(N)O2 (centres undefined)	8	i	x	-2.8	x	0.87	105
O=C(CSc1nnc(COc2cccc3cccnc23)o1)N1CCN(C(=O)c2ccco2)CC1	-12	i	148	-3.3	53	1.1	108
COc1ccc(-c2nc(NC(=O)CSc3nnc(C)s3)ns2)cc1	0	i	121	-1.9	14	1.1	84
O=C1CC(c2cccc(F)c2)C2=C(CCCC2=O)N1 (centres undefined)	4	i	x	-2.6	x	0.91	106
CN=C1S/C(=C\c2ccc(N3CCOCC3)cc2C)C(=O)N1C	-10	i	85	-1.5	22	0.9	104
O=C(COC(=O)C1CC(O)CN1S(=O)(=O)c1ccc(Cl)cc1)c1ccccc1 (centres undefined)	14	i	144	-0.6	30	0.97	140
Cc1ccc(N(CC(=O)NC(C)(C)C)C(=O)CNC(=O)c2cccs2)cc1	-1	i	x	x	x	1.1	101
COc1ccc(N2CCN(CC(O)COc3ccc4c(c3)CCC4)CC2)cc1 (centres undefined)	-4	i	100	-2.4	-19	0.93	106
CCOC(=O)Cn1c(=N)n(CCOc2cccc(C)c2)c2ccccc21	-8	i	99	-0.2	20	0.99	95
CCCOc1ccc(C(=O)c2nc3c(n2O)CCCCC3)cc1	-2	i	83	-0.2	33	0.86	93
N#C/C(=C\c1cn(CC(=O)N2CCCC2)c2ccccc12)C(=O)NCc1ccc2c(c1)OCO2	-4	i	126	-1.2	-254	0.92	99
Cc1cccc(N2CCN(CC(=O)Nc3ccccc3[N+](=O)[O-])CC2)c1C	1	i	96	-2.3	-46	0.9	97
Cc1ccc(-c2cc(-c3ccccc3[N+](=O)[O-])[nH]n2)c(O)c1	8	x	68	-2.2	7	x	102

2 of the compounds above, with each value named.
> Cc1cccc(N2CCN(CC(=O)Nc3ccccc3[N+](=O)[O-])CC2)c1C
- PKD1 inh: 1
- HSV replic up: i
- INS promoter inh cell count: 96
- GALR2 ag: -2.3
- INS promoter inh: -46
- HSV replic up primary fold: 0.9
- RGS16-Gao: 97

> COC(=O)c1cc(C(=O)CC(C)C)c[nH]1
- PKD1 inh: 2
- HSV replic up: i
- INS promoter inh cell count: 109
- GALR2 ag: x
- INS promoter inh: 8
- HSV replic up primary fold: 1
- RGS16-Gao: 102

(more compounds)
compound	PKD1 inh	HSV replic up	INS promoter inh cell count	GALR2 ag	INS promoter inh	HSV replic up primary fold	RGS16-Gao
COC(=O)c1sc(-c2ccc(Cl)cc2)cc1NC(=O)c1ccccc1C(=O)O	x	i	x	x	x	0.9	103
O=c1c2c(-c3ccc(Cl)cc3)csc2ncn1/N=C/c1cccc([N+](=O)[O-])c1O	-4	i	x	x	x	0.92	104
O=C(c1coc(=O)c2ccccc12)N1CCN(Cc2ccccc2)CC1	2	x	102	-2.5	27	x	102
COc1ccc(C(=O)C2CCCN(C3Cc4ccccc4C3)C2)cc1OC (centres undefined)	-5	i	142	x	29	0.81	104
CCN(CC)S(=O)(=O)c1ccc(-c2nnc(SCC(=O)Nc3ccc4c(c3)OCO4)o2)cc1	-23	i	93	0.5	9	0.71	100
CSC1=NCCN1C(=O)c1c(F)cccc1Cl	8	i	x	-0.6	x	0.9	108
COC(=O)Nc1cc(C)n(-c2ccccc2)n1	x	i	x	x	x	1	103
COC(=O)/C=C/c1oc2ccccc2c1C	-2	i	x	x	x	0.99	103
